# Screens (PubChem BioAssay)
# Sa growth 42C: S. aureus growth inhibition at 42 and 30 °C, primary screen, LtaS inhibitor project, RN4220, two temperatures. OD600, 20 h, 42 °C; hits give low values. relative growth, % (no concentration beside the values). 0.53% of 170,000 active. AID 720641, 2013;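 active means growth at 42 °C up to 50% and 20 or more points under that at 30 °C, or under 10% at both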;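 further: 300 nL library stock went into each well; scaled to the means of positive and negative controls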
# HCMV UL50-53 inh: inhibitors of HCMV UL50-UL53 interaction, biochemical, HTRF. HCMV UL50-UL53 nuclear egress complex (human cytomegalovirus). AID 1918969, 2023. normalized percent inhibition. 0.15% of 190,000 active. inhibition, % (concentration not given with the values);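 active means both replicates at 50% or more, plus weaker picks with an unusually low signal ratio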;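 further: stock transfer was 100 nL into about 20 µL; 0% = negative control wells and 100% = wells with untagged competitor protein; inactives centre near -12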
# GIV Gai3 FP: inhibitors of GIV peptide binding to Galpha-i3, primary screen, biochemical, fluorescence polarization, FITC-GIV GBA peptide, rat Galphai3 | 90 min; hits give low values; scaled: aluminum fluoride 0%, vehicle 100% | Guanine nucleotide-binding protein G(i) subunit alpha-3 (Rattus norvegicus), P08753 | percent of control (FP), % (concentration not given with the values) | 0.42% of 210,000 active;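 active means replicate mean at 85% of control or lower, very high polarization wells dropped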;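 further: wells of about 15 µL received 100 nL stock; the first replicate is given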
# Target sequence (P08753 whole entry, looked up): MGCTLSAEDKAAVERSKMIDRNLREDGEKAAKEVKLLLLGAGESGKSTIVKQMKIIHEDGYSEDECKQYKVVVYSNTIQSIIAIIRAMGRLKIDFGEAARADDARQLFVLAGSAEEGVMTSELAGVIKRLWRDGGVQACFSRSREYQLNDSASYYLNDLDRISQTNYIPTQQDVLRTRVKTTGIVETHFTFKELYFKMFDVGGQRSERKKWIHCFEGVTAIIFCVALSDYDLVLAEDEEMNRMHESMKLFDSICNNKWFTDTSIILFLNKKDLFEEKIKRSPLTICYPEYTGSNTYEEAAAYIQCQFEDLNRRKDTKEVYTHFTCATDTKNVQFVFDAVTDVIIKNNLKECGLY
# Sa growth 42C second temp: second read-out of Sa growth 42C, no call of its own (marks repeat the call); relative growth, %; measured here: growth at 30 °C;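 optical density after 20 h as mean of two plates; 100% = untreated growth and lower means inhibition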
# Starred values were filed as active, the others as inactive; x = no result given; & = joins results of further samples.
(1) O=C1c2ccccc2S(=O)(=O)N1c1c(F)c(F)nc(F)c1F
(2) COc1ccc(-n2c(/C=C/c3cccc4ccccc34)nc3ccccc3c2=O)cc1Cl
(3) Cc1ccc(Cn2nnnc2CN2CCC(NC(=O)C(C)(C)C)CC2)cc1
(4) COc1ccccc1C(CC(=O)N1CCCC1)c1ccc2c(c1)OCO2 (configuration not stated)
(5) O=C(Cn1cnc2c(cnn2-c2ccccc2)c1=O)NCc1ccco1
(6) O=C(CNc1ccccc1N1CCCCC1)Nc1ccc(S(=O)(=O)N2CCCCC2)cc1
compound no.	1	2	3	4	5	6
Sa growth 42C	x	127	105	92	92	106
Sa growth 42C second temp	x	86	79	85	85	94
HCMV UL50-53 inh	-15	x	-3	-12	-16	1
GIV Gai3 FP	96	107	97	x	104	x

(7) Cc1cccc(CCNC(=O)CCS(=O)(=O)c2cc3c(cc2C)NC(=O)CO3)c1
(8) CC(=O)Nc1ccc(S(=O)(=O)N2CCN(CCC#N)CC2)cc1
(9) CCOc1ccc2oc(=O)cc(CN3CCN(C(=O)c4cccc(Cl)c4)CC3)c2c1
(10) O=C(O)Cn1nc(-c2ccccc2)oc1=O
(11) CCOc1c(Br)cc(C2C3=C(CC(C)(C)CC3=O)OC3=C2C(=O)CC(C)(C)C3)cc1OC
(12) O=C(/C=C/c1ccccc1)OC1CCOC1=O (configuration not stated)
compound no.	7	8	9	10	11	12
Sa growth 42C	95	106	107	86	x	87
Sa growth 42C second temp	96	89	67	91	x	85
HCMV UL50-53 inh	x	-12	9	-14	-4	-20
GIV Gai3 FP	105	101	103	x	100	x

(13) CNC(=O)c1cc(-c2ccccc2)c(N2CCOCC2)s1
(14) COC(=O)c1cccnc1-n1c(=O)[nH]c2ncccc2c1=O
(15) CCOc1cc(C2NC(=O)NC(C)=C2C(=O)OCc2ccc(OC)cc2)ccc1O (configuration not stated)
(16) CCn1c(C)nc2cc(-c3nnc4n3-c3ccccc3SC4)ccc21
(17) COc1ccccc1-c1c(C)nn2c(N3CCN(c4ccccc4)CC3)cc(C)nc12
(18) CCC(C)OC(=O)/C(C#N)=C/c1ccc(-c2ccc(Br)cc2)o1 (configuration not stated)
compound no.	13	14	15	16	17	18
Sa growth 42C	108	119	x	87	99	95
Sa growth 42C second temp	106	85	x	96	90	82
HCMV UL50-53 inh	9	-6	-26	-10	x	-53
GIV Gai3 FP	104	104	104	x	101	101

(19) Cc1ccc(CN2C(=O)C(O)(CC(=O)c3ccc(C)cc3)c3ccccc32)cc1 (configuration not stated)
(20) Cc1nc2ccn(Cc3ccccc3)c(=O)c2cc1C(=O)Nc1ccc(F)cc1Cl
(21) O=C(NCc1ccccc1)c1ccc2c(c1)N(Cc1ccccc1)C(=O)c1ccccc1S2(=O)=O
(22) COc1cc2c(cc1OC)C(C(=O)O)CC(=O)N2 (configuration not stated)
(23) CCc1ccc(CNC(=O)c2cc3c(s2)-c2ccccc2OC3)cc1
(24) O=S(=O)(CC(O)(c1ccccc1)c1ccccc1)c1cccc(C(F)(F)F)c1
compound no.	19	20	21	22	23	24
Sa growth 42C	92	98	100	87	92	x
Sa growth 42C second temp	76	92	115	103	75	x
HCMV UL50-53 inh	-25	x	-31	5	-8	-8
GIV Gai3 FP	104	105	106	103	99	102

(25) CC1Cc2ccccc2N1C(=O)CSc1nnnn1C(C)C (configuration not stated)
(26) CCCC(CCC)C(=O)Nc1cc(C(=O)O)cc(C(=O)O)c1
(27) O=C1C2CCCCC2C(=O)N1CC(=O)N1c2ccccc2Sc2ccc(C(F)(F)F)cc21 (configuration not stated)
(28) Cc1cc(C)c(NC(=O)c2ncoc2-c2ccco2)c(C)c1
(29) CCOc1cc(C(=O)Nc2ccc(-c3nc4ncccc4o3)cc2C)cc(OCC)c1OCC
(30) Cc1ccc(CCNC(=O)CCSCc2ccccc2Cl)cc1
compound no.	25	26	27	28	29	30
Sa growth 42C	94	108	x	91	78	121
Sa growth 42C second temp	91	87	x	97	83	98
HCMV UL50-53 inh	-5	x	-15	x	-15	x
GIV Gai3 FP	105	96	106	105	107	98

(31) COC(=O)C1=C(N)OC2=C(C(=O)CC(c3ccccc3)C2)C1c1ccccc1OC (configuration not stated)
(32) Cc1ccc(CN(C(=O)c2ccccc2)c2ccccn2)o1
(33) O=C1c2ccccc2-c2onc3c(N4CCCCC4)cc(N4CCCCC4)c1c23
(34) Cc1cccc(-c2noc(CSc3nc4c(oc5ccccc54)c(=O)n3CC3CCCO3)n2)c1 (configuration not stated)
(35) CC1CCCCN1C(=O)c1cccc2c1SCCC2=O (configuration not stated)
(36) Cc1nc2ccn(Cc3ccccc3)c(=O)c2cc1C(=O)N1CCCC1
compound no.	31	32	33	34	35	36
Sa growth 42C	x	93	96	x	103	88
Sa growth 42C second temp	x	94	57	x	83	87
HCMV UL50-53 inh	-11	-10	-67	-16	-7	-14
GIV Gai3 FP	105	111	177	107	99&104	97

(37) Cc1cc(N2CCCC(O)C2)n2nc(C)c(-c3ccc(F)cc3)c2n1 (configuration not stated)
(38) COc1ccc(-c2nc3scc(CCNS(=O)(=O)c4ccc5c(c4)OCCO5)n3n2)cc1
(39) CCc1ccc(Cn2c(CNS(=O)(=O)c3ccc(F)c(Cl)c3)nc3cccnc32)cc1
(40) CCOc1ccc(NC(=O)c2cc(OC)nc3ccccc23)cc1
(41) CCC(Sc1nnc(-c2ccccc2NC(C)=O)c(=O)[nH]1)C(=O)Nc1cccc(C)c1C (configuration not stated)
(42) O=C(NC1CCCC1)C1CCCN(C(=O)Nc2ccccc2)C1 (configuration not stated)
compound no.	37	38	39	40	41	42
Sa growth 42C	69	107	91	96	x	102
Sa growth 42C second temp	68	95	88	89	x	77
HCMV UL50-53 inh	14	x	x	8	-9	-2
GIV Gai3 FP	104	98	105	107	100	97

# Some of the entries above, set out differently:
21. O=C(NCc1ccccc1)c1ccc2c(c1)N(Cc1ccccc1)C(=O)c1ccccc1S2(=O)=O
- Sa growth 42C = 100
- Sa growth 42C second temp = 115
- HCMV UL50-53 inh = -31
- GIV Gai3 FP = 106
22. COc1cc2c(cc1OC)C(C(=O)O)CC(=O)N2 (configuration not stated)
- Sa growth 42C = 87
- Sa growth 42C second temp = 103
- HCMV UL50-53 inh = 5
- GIV Gai3 FP = 103
23. CCc1ccc(CNC(=O)c2cc3c(s2)-c2ccccc2OC3)cc1
- Sa growth 42C = 92
- Sa growth 42C second temp = 75
- HCMV UL50-53 inh = -8
- GIV Gai3 FP = 99
24. O=S(=O)(CC(O)(c1ccccc1)c1ccccc1)c1cccc(C(F)(F)F)c1
- Sa growth 42C = x
- Sa growth 42C second temp = x
- HCMV UL50-53 inh = -8
- GIV Gai3 FP = 102

# (more compounds)
(43) c1ccc(-c2noc(-c3ccc4c(c3)OCO4)n2)cc1
(44) O=C(COC(=O)C(Cc1c[nH]c2ccccc12)NC(=O)c1ccc(Cl)cc1)c1ccc(Cl)cc1 (configuration not stated)
(45) CC1CCC(NC(=O)c2ccc(CS(=O)(=O)c3c(Cl)cccc3Cl)o2)CC1 (configuration not stated)
(46) Cc1oc2c(c1C(=O)O)C(=O)c1ccccc1C2=O
(47) CCCCn1c(SCC(=O)c2ccccc2)nc2sc3c(c2c1=O)CCCC3
(48) CC(=O)c1ccc(N2CCN(c3ncnc4c3c(-c3ccccc3)cn4-c3cccc(C)c3)CC2)cc1
compound no.	43	44	45	46	47	48
Sa growth 42C	118	135	98	11	94	111
Sa growth 42C second temp	94	90	87	4	90	97
HCMV UL50-53 inh	4	x	-28	-26	-28	x
GIV Gai3 FP	108	104&97	102	86	107	111

(49) CCO/C=C1\C(=O)N(Cc2ccccc2)C(=O)c2ccccc21
(50) C=C(C)Cn1c(SCC(=O)Nc2cc(C)ccc2C)nc2sc3c(c2c1=O)CCCC3
(51) Oc1c(C(c2cccnc2)N2CCOCC2)ccc2cccnc12 (configuration not stated)
(52) O=C(Cn1ncc2ccsc2c1=O)N1CCN(c2ccc(F)cc2)CC1
(53) CSC(=NC(=O)c1c(Cl)cccc1Cl)N1CCOCC1
(54) CC(C)CC(N)C(=O)N1CCOCCOCCOCC1 (configuration not stated)
compound no.	49	50	51	52	53	54
Sa growth 42C	116	101	94	116	98	105
Sa growth 42C second temp	93	102	40	89	90	105
HCMV UL50-53 inh	20	-2	-51	-14	-24	0
GIV Gai3 FP	x	104	x	96	103	101

(55) CC1CCN(c2nc(N)c(C(=O)NC(C)C)s2)CC1
(56) O=C(Nc1ccc(Cl)cc1)c1cc2c(-c3ccccc3)nn(-c3ccccc3)c2s1
(57) CC(Sc1nnc2c(n1)[nH]c1ccccc12)C(=O)NC(C)(C)C (configuration not stated)
(58) O=C(O)CCCC(=O)N1CCN(Cc2ccc3c(c2)OCO3)CC1
(59) COc1ccc(OC)c(C2C3=C(CC(C)(C)CC3=O)Nc3nc(SCc4ccccc4Cl)[nH]c(=O)c32)c1 (configuration not stated)
(60) CC1CCN(S(=O)(=O)c2ccc3c(c2)CCC(=O)N3CC(=O)Nc2cccc(C#N)c2)CC1
compound no.	55	56	57	58	59	60
Sa growth 42C	x	78	84	99	x	97
Sa growth 42C second temp	x	91	82	97	x	77
HCMV UL50-53 inh	-26	-42	-62	-8	-6	x
GIV Gai3 FP	101	103	99	109	103	96

(61) O=C(CCC1CCCCC1)Nc1c[nH]c(=O)[nH]c1=O
(62) CCOc1ccc(OCC)c(S(=O)(=O)N2CCN(C34CC5CC(CC(C5)C3)C4)CC2)c1
(63) Cn1c(CC(=O)O)c(S(C)(=O)=O)c2ccccc21
(64) CCCCN(CCCC)CCCNC(=O)Cn1cc2c(n1)-c1c(oc(C(=O)N3CCCC3)c1C)CC2
(65) O=C(/C=C/c1ccccc1)OCc1ncc(-c2ccccc2)o1
(66) CCNC(=S)Nc1cc(OCC)c(N2CCOCC2)cc1OCC
compound no.	61	62	63	64	65	66
Sa growth 42C	105	97	106	112	114	106
Sa growth 42C second temp	77	86	91	91	98	69
HCMV UL50-53 inh	-8	-37	-2	x	-9	-9
GIV Gai3 FP	101	99	x	105	x	105

(67) CCOc1ccc2nc(NC(=O)C3=NNC(=O)CC3)sc2c1
(68) CCCN(CCC)C(=O)c1sc2nc(C)nc(N3CCCCC3)c2c1C
(69) O=C(COc1ccc2c(=O)c(-c3ccccc3)coc2c1)N1CCCCC1
(70) N#C/C(=C\Nc1cccc(Cl)c1)S(=O)(=O)c1ccc(Cl)cc1
(71) Cc1oc(-c2ccc(C(=O)Nc3cc(F)ccc3F)cc2)nc1COc1ccccc1
(72) Cc1nnsc1C(=O)NC(=O)c1ccccc1O
compound no.	67	68	69	70	71	72
Sa growth 42C	98	x	90	106	110	100
Sa growth 42C second temp	91	x	99	89	95	86
HCMV UL50-53 inh	-18	-19	7	20	x	42
GIV Gai3 FP	x	105	106	103	104	104

(73) O=C(NCc1ccc2c(c1)OCO2)c1cccc(Nc2ccc(-c3ccccc3)nn2)c1
(74) O=C(O)C1CCC(CNc2cc(=O)oc3ccccc23)CC1 (configuration not stated)
(75) COc1cccc(CNC(=O)Nc2cc(C(=O)NCc3cccc(F)c3)ccc2N2CCCC2)c1
(76) CCCCOc1ccccc1/C=N/N=C(N)N
(77) CCCN1CC=C2C(C1)C(c1ccc(C(=O)OC)cc1)C(C#N)=C(N)C2(C#N)C#N (configuration not stated)
(78) Cc1ccc2c(=O)[nH]c(Cc3ccccc3C(=O)O)nc2c1
compound no.	73	74	75	76	77	78
Sa growth 42C	x	97	109	74	103	71
Sa growth 42C second temp	x	88	90	66	78	95
HCMV UL50-53 inh	-34	-14	x	-10	-56	10
GIV Gai3 FP	108	108	101	x	110	x

(79) Cc1noc(/C=C/c2ccc(F)cc2F)c1S(=O)(=O)N1CCC(C(=O)N2CCC(N(C)C(C)C)CC2)CC1
(80) CN(C)c1ncnc2c1[nH]c1ccccc12
(81) CNC(=O)Cc1ccc(-n2c(=O)c3ccccc3n(CC(=O)NCc3ccccc3)c2=O)cc1
(82) Cc1cc(NC(=O)Nc2ccccc2)c(C(F)(F)F)o1
(83) COc1cccc(CN2C(=O)c3ccccc3Sc3ccc(C(=O)NCc4ccc(C)cc4)cc32)c1
(84) Cc1oc2ccc(OC(=O)c3ccc(Br)cc3)cc2c1C(=O)OC(C)C
compound no.	79	80	81	82	83	84
Sa growth 42C	x	103	x	91	x	x
Sa growth 42C second temp	x	77	x	87	x	x
HCMV UL50-53 inh	-83	-5	-2	-10	2	-11
GIV Gai3 FP	107	103	107	104	102	105

(85) Cc1ccccc1CS(=O)(=O)Cc1ccc(C(=O)Nc2noc3ccccc23)o1
(86) CCCCNc1cc(C(=O)O)cc(S(N)(=O)=O)c1Oc1ccccc1
(87) Cc1ccc(-n2c(=O)c3cccnc3n2CC(=O)Nc2cc(C)cc(C)c2)cc1
(88) O=C(COC(=O)/C=C/c1ccc(Br)o1)NC1CCCCCC1
(89) Cc1cc(-c2ccco2)n(CC(=O)NCCN(C)C)n1
(90) CCOC(=O)C1CCCN(C(=O)CCNC(=O)Cn2ccc3ccccc3c2=O)C1 (configuration not stated)
(91) COc1ccc(-n2ccnc(NCc3ccc(C)cc3)c2=O)cc1OC
(92) CC(NC(=O)c1ccc(Cl)cc1)c1ccncc1 (configuration not stated)
(93) CC/C(=N\NC(N)=O)c1cc(F)ccc1O
compound no.	85	86	87	88	89	90	91	92	93
Sa growth 42C	88	101&103	109	81	103	95	116	97	99
Sa growth 42C second temp	98	98&97	74	93	98	92	89	96	93
HCMV UL50-53 inh	-10	-25&-10&-1&-17&-2&-24&-8	x	-27	4	-15	x	0	-3
GIV Gai3 FP	103	113&94	97	x	113	101	104	99	x
